RanGTP-Impb inh: disruptors of Ran-importin-beta complex formation – biochemical, FRET, CFP-Ran, YFP-importin-beta, homogeneous, primary screen | cell-free CFP-Ran/YFP-importin-beta FRET ratio | inhibition, % (test concentration not listed) | 300,000 compounds, 1.1% hits;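 active = most replicates above 15%; inconclusive = exactly half above 15%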;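 also: 0% = DMSO wells and 100% = Ran loaded with GDP instead of GTP; wells of about 40 µL received 100 nL stock; the first replicate is given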
MLL AF4-AF9 inh: blocks AF4 peptide binding to human AF9; P42568; AlphaScreen, biotin-AF4 peptide binding to FLAG-AF9; 350,000 compounds, 0.47% hits; inhibition, % at 10 µM;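 active = every replicate reaching a set inhibition limit, whatever the replicate mean, cut at about 25% in these data; inconclusive = mean inhibition reaches that limit but some replicates miss it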;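 also: 0% = plate neutral control median and 100% = total signal loss; the record names both 10 and 1 µM as test concentration; the first replicate is given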
Target sequence (P42568 whole entry, looked up): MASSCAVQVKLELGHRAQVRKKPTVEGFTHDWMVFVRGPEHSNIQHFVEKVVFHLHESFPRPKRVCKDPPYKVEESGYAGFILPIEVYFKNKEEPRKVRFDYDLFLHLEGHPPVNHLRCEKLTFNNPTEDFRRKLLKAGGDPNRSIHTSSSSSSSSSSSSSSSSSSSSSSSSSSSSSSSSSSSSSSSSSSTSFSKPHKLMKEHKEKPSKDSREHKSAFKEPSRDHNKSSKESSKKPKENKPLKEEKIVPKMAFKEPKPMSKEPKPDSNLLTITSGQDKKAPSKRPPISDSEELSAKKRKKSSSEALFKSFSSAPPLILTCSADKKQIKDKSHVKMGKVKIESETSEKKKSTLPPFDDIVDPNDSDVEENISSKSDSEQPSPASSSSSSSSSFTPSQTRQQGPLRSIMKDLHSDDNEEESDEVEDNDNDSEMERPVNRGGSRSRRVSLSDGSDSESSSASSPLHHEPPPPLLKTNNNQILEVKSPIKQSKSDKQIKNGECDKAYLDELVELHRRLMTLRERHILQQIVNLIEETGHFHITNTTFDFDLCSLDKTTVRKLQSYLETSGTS
A1 inh: inhibitors of the anti-apoptotic protein A1, read as caspase activation; caspase activation, % (no concentration beside the values); 330,000 compounds, 0.066% hits; MEF A1-2A-BIM cells, Caspase-Glo 3/7 luminescence, 3 h; percent of clofoctol response, vehicle zero;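 active = over half of replicate activation scores above 10%, or exactly half above 10 with the replicate mean above 10; inconclusive = replicate mean below 10 yet half the replicates above 10; inactive = over half of replicates below 10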;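 also: wells of about 30 µL received 50 nL stock; many hits fall short of the cut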
T cruzi repl: T. cruzi replication inhibition; 300,000 compounds, 1.4% hits; T. cruzi beta-gal in NIH3T3, luminescence, 90 h; inhibition, % (concentration not given with the values);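 active = mean inhibition across valid replicates above about 55%, limit read from the data; inconclusive = mean below that limit but half or more replicates reach it; inactive = mean below it, under half of replicates reach it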;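 also: signal also drops with host cell toxicity which is not excluded here; 0% = plate median of DMSO wells and 100% = zero luminescence signal; higher percent means less beta-gal luminescence so fewer parasites; stock transfer was 50 nL into about 50 µL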
Calb FLC: C. albicans growth modulation with fluconazole. C. albicans CaCi-2 (fluconazole-resistant clinical isolate) + fluconazole, Alamar Blue growth, 48 h. growth inhibition, % (no concentration beside the values). 300,000 compounds, 0.57% hits;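 active = most replicates above 75%; inconclusive = exactly half above 75%; inactive = most below 75%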;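 also: all wells also contain fluconazole at 8 µg/ml as a sub-toxic cotreatment; 0% = median of DMSO wells and 100% = median of geldanamycin control wells; wells of about 8 µL received 7.5 nL stock; the first replicate is given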
Beta cell apopt: beta cell apoptosis inhibition | INS-1E cytokine-induced death, ATP luminescence, 48 h; percent of positive-control rescue, neutral wells zero | protection from apoptosis, % (concentration not given with the values) | 300,000 compounds, 0.8% hits | AID 435005;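 active = all replicates at 75% or more, or half of them and the mean; inconclusive = half reach 75% but not the mean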;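 also: 0% = cytokine-treated negative control wells and 100% = positive control rescue; higher means more ATP so stronger rescue from cytokine killing; wells of about 40 µL received 100 nL stock; the first replicate is given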
rRNA inh HTS: inhibitors of bacterial rRNA selective over humanized ribosomes; E. coli WT GFP vs humanized-ribosome RFP mutants, fluorescence, 24 h; hits give low values; DMSO median 0, no signal -100; GFP signal change (wild-type ribosome), % (test concentration not listed); 350,000 compounds, 1.6% hits; AID 720706;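 active = significant combined selectivity score with lowered wild-type GFP, culture density cut under 30%, mutant RFP and density less affected; inactive = any of these conditions unmet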; also: one replicate is shown; some compounds called inactive have numbers as strong as hits
Vif TR-FRET: HIV-1 Vif–A3G interaction blockers – biochemical, TR-FRET, GST-Vif 1-94, biotin-A3G peptide, dose response retest, primary screen (AID 1117319); inhibition, %; hits with a dose series show IC50 in µM; TR-FRET GST-Vif / biotin-A3G peptide binding; higher % means a stronger effect; test concentration not given here; strong numbers were not always called active; 260,000 compounds, 0.57% hits;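 active = above the screen mean plus three standard deviations and confirmed in dose response; inconclusive = results disagree or hit not tested in dose response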;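 also: Vif residues 1-94 fused to GST binding biotinylated APOBEC3G peptide 110-148; 0% = full assay without inhibitor and 100% = GST in place of GST-Vif; retest series ran down from 100 µM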
rRNA inh HTS OD600: second read-out of rRNA inh HTS, no call of its own (marks repeat the call); OD600 change, %; measured here: OD600 growth;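 optical density of the mix in the first replicate; 0 = DMSO median and -100 = no signal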
rRNA inh HTS RFP: second read-out of rRNA inh HTS, no call of its own (marks repeat the call); RFP signal change, %; measured here: RFP humanized mutant strains;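 first replicate; 0 = DMSO median and -100 = no signal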
An asterisk follows results filed as active; ? = inconclusive; · = not tested or not shown; & = joins results of further samples. An excerpt; count on the stated rates, not on these rows.

SMILES	RanGTP-Impb inh	MLL AF4-AF9 inh	A1 inh	T cruzi repl	Calb FLC	Beta cell apopt	rRNA inh HTS	rRNA inh HTS OD600	rRNA inh HTS RFP	Vif TR-FRET
CCNc1nc(N)nc(Oc2ccc(OCC)nn2)n1	0.8	·	-0.6	3.7	16.0	-1.7	·	·	·	8.7%
COc1ccc(NC(=O)C2CCN(C(=O)c3ccccc3)CC2)cc1OC	-3.3	-40.2	0.7	-14.5	3.5	-2.6	3.7	1.3	0.0	2.4%
N#Cc1c(Nc2ccc(F)cc2)sc(C(=O)c2ccc(F)cc2)c1N	-5.9	-1.9	-0.5	2.8	9.6	-1.1	1.0	8.4	0.1	-3.4%
O=C(CCC1CCCN(C(=O)c2ccc3[nH]ccc3c2)C1)N1CCN(c2ccccn2)CC1 (stereo not given)	?	2.7	-0.3	2.1	0.4	3.7	-10.5	-16.8	-2.5	15.7%
O=C(NNS(=O)(=O)c1ccc(F)cc1)c1ccc(O)cc1	-0.8	1.1	-0.2	-10.7	7.4	-2.9	0.1	2.3	-3.0	·
COc1ccc(C(=O)N/C(=C\c2ccc([N+](=O)[O-])cc2)C(=O)NC(CCSC)C(=O)O)cc1 (stereo not given)	-2.3	-3.3	0.8	-8.1	-1.2	-2.3	6.3	3.1	1.9	3.3%
OCCN(Cc1ccccc1)Cc1ccccc1Cl	-1.7	·	-0.5	-5.8	-2.1	4.6	·	·	·	-0.1%
O=C(c1ccc(CNS(=O)(=O)c2cccc(C(F)(F)F)c2)cc1)N1CCOCC1	10.2	·	0.6	6.3	1.1	-9.2	·	·	·	-2.1%&-2.5%
CC(C)(C)NC(=O)NC(=O)CN1c2cccc3cccc(c23)S1(=O)=O	8.1	6.9	0.7	1.6	-14.8	·	1.2	-9.3	-0.4	3.5%
Cc1cc(C(C)(C)C)oc1C(=O)N(CC(=O)NC1CCCC1)Cc1ccc(Cl)cc1	5.8	·	-0.3	34.1	1.4	7.5	·	·	·	-2.8%
O=C(Nc1ccccc1)C1CC(=O)N(C2CCCCC2)C1 (stereo not given)	·	·	0.3	·	-3.2	-10.8	·	·	·	1.1%
O=C(NCc1ccc2c(c1)OCO2)c1nn(-c2ccccc2)c(=O)c2ccccc12	0.4	·	0.3	8.0	28.5	-4.0	·	·	·	-7.6%
O=C(CSc1nc(-c2ccc(F)cc2)cs1)N1CCOCC1	5.0	·	-3.1	-9.6	-10.0	2.9	-2.8	-0.9	-3.6	-3.8%
Cc1ccc(-n2ncc3c(NCc4ccccc4)ncnc32)cc1	-1.8	·	-0.4	-8.1	-2.9	-11.5	·	·	·	-10.5%
Cc1ccc(CNC(=O)CCNC(=O)c2ccc(Br)o2)cc1	-3.6	·	0.0	-6.0	-15.2	2.1	·	·	·	2.3%
NC(=O)c1cc(-c2ccccc2)nc(Oc2ccccc2)n1	-2.7	·	0.1	7.0	-4.2	-7.0	·	·	·	-5.2%
O=C(CCN1C(=O)C2CCCCC2C1=O)NNC(=O)c1cccc(Cl)c1 (stereo not given)	2.3	·	-0.3	6.4	-10.1	-1.1	·	·	·	14.5%
CC(=O)Nc1cccc(NC(=O)CSc2nc(=O)n(CCN3CCOCC3)c3c2CCC3)c1	4.5	-0.1	0.3	-18.8	7.1	-4.5	8.9	9.1	0.1	2.0%
O=C(Nc1ccc(Cl)cc1)NC1CCCCC1	-3.7	·	-1.9	10.7	1.4	-0.2	·	·	·	9.5%
Cc1cccc(-c2cccc(NC(=O)C3CCCN(C(=O)c4cccnc4)C3)c2)c1 (stereo not given)	4.2	-0.2	-0.9	8.6	11.4	-2.0	-7.6	-45.7	-2.8	·
CC(C)NC(=O)COc1coc(CN2CCN(C(=O)c3ccco3)CC2)cc1=O	2.2	-11.9	0.8	-12.1	-3.0	-0.4	-1.4	2.5	-0.6	·
CCOC(=O)c1c(C)n(C)c2ccc(OCCN(C)C)cc12	-0.6	·	0.2	8.7	2.4	-11.1	·	·	·	22.6%
CC1CCC(NC(=O)C2c3ccccc3C(=O)N2Cc2cccs2)CC1 (stereo not given)	1.5	·	0.3	-18.4	2.3	2.9	·	·	·	·
Cc1ccc(/C=N/NC(=O)COc2ccc(Cl)c(C)c2)o1	1.6	-1.7	0.2	-17.1	10.7	-2.6	-0.3	4.3	0.1	·
O=C(c1cccc(F)c1)N1CCN(C(=O)C(c2ccccc2)c2ccccc2)CC1	-2.0	-2.9	-0.4	2.0	8.4	-1.3	-3.0	2.3	1.8	·
COC(=O)c1cc2c(s1)-c1ccccc1CC2	-1.8	·	0.2	5.9	-5.4	0.9	·	·	·	10.7%
CN1CCN(c2cc(C(F)(F)F)nc(-c3ccccn3)n2)CC1	-1.5	-0.3	0.3	13.3	-1.8	-12.8	4.4	2.9	-0.3	-1.6%
OC1C2CN3CCN(C2)CC1(Cc1ccccc1)C3 (stereo not given)	0.3	·	0.1	-7.7	-2.3	-4.2	·	·	·	-13.2%
Cc1cc(C)c(S(=O)(=O)N2CCOC2CNC(=O)C(=O)NCCc2c[nH]c3ccccc23)c(C)c1 (stereo not given)	4.1	-0.7	-0.7	-9.3	-4.1	1.7	2.9	-6.5	2.3	-1.0%
COC(=O)c1ccc(CN2CCN(CC=C(C)C)C(CCO)C2)cc1 (stereo not given)	0.7	-1.7	0.2	27.0	-31.9	·	10.1	14.8	-0.6	·
CC1(C)C([N+](=O)[O-])C(c2ccc(Cl)cc2)NC(c2ccc(Cl)cc2)C1[N+](=O)[O-] (stereo not given)	-2.4	0.3	0.5	57.6*	-0.3	0.5	2.4	0.0	0.9	2.4%
CCc1cc(-c2n[nH]c(=S)n2C(C)c2ccccc2)cs1 (stereo not given)	11.0	·	-1.2	-13.3	9.3	0.9	·	·	·	-3.9%
N=C1C(c2nc(-c3ccc(Br)cc3)cs2)=C(O)CN1NC(=O)c1ccc([N+](=O)[O-])cc1	1.4	-20.3	1.5	-13.1	8.1	6.8	10.2	11.8	-1.4	-5.2%
CCCc1nc2nc(C)c(NS(=O)(=O)c3ccc(C4CCCCC4)cc3)c(=O)n2[nH]1	-3.9	-3.9	0.6	-10.9	-1.6	-0.5	-6.2	-46.8	-1.6	·
CC1(C)C[C@H]2C3=CCC4[C@@]5(C)CC[C@H](O)C(C)(C)C5CC[C@@]4(C)[C@]3(C)[C@@H](O)[C@@H](O)[C@@]2(CO)[C@@H](O)[C@@H]1O (stereo not given in full)	·	-25.8	0.1	·	·	7.9	-10.4	-6.2	2.6	·
CCC(=O)NC(=S)NNC(=O)c1ccc(NC(=O)c2ccccc2)cc1	-2.3	-3.0	-0.6	-7.1	18.4	4.2	-8.8	13.1	19.7	·
COC(=O)c1ccc(CN2C(=O)NC(c3ccccc3)(c3ccccc3)C2=O)o1	1.7	4.0	0.3	1.9	-9.2	-4.5	-4.1	-12.1	-0.4	?
Cc1ccc(S(=O)(=O)N2CCC[C@H]2C(=O)Nc2ccc(F)cc2C)cc1	·	3.2	0.4	·	·	-1.5	1.2	0.0	-2.7	·
CCC(C)N(C(=O)c1csnn1)C(C(=O)NC1CCCC1)c1c(F)cccc1Cl (stereo not given)	-2.4	0.0	1.2	9.1	-3.2	-5.2	-0.1	5.1	-0.6	·
CCC(=O)N(Cc1cc(=O)[nH]c2ccccc12)C1CCCCC1	?	·	0.2	-14.5	4.6	-3.9	·	·	·	-1.4%
Cc1ccc(N2C(=O)/C(=C/c3ccco3)SC2=S)cc1	1.2	2.8	-1.9	-8.2	?	-6.5	6.5	3.8	3.7	-7.2%
COc1ccc(-n2cc(CN(C)Cc3n[nH]c(=O)[nH]3)c(-c3cccc(F)c3)n2)cc1	2.5	0.5	0.8	19.1	-10.7	-1.9	-10.8	-14.6	-0.6	3.5%
C(=C\c1ccccc1)/CN1CCN(Cc2ccc3c(c2)OCO3)CC1	2.5	5.1	-0.1	45.6	-12.0	-4.5	5.4	-5.8	-2.1	·
CC(=O)N1CCN(C(=S)NC(=O)c2c(-c3ccccc3Cl)noc2C)CC1	4.7	-3.3	0.0	-4.7	-6.4	-3.0	5.1	-1.5	2.4	15.5%
CCC(=O)NC(=S)Nc1ccc(NC(=O)c2ccco2)c(OC)c1	6.0	·	-0.4	-4.3	7.6	-2.7	·	·	·	7.3%
COc1ccccc1N(C)S(=O)(=O)c1ccc(C(=O)OCC(=O)NCCC2=CCCCC2)cc1	2.4	2.7	0.2	-7.2	-8.5	1.5	-3.4	-8.3	5.3	9.8%
CCC(C)(C)n1nnnc1C(C(C)C)N(Cc1cccnc1)Cc1ccco1 (stereo not given)	2.3	6.6	1.2	50.1	-6.6	3.1	-8.5	-2.1	1.1	-5.0%
CCOC(=O)C1(CCOc2ccccc2)CCN(C(=O)c2ccc(-n3cccn3)cc2)CC1	-1.0	-0.4	0.6	29.6	-8.6	6.3	-37.7	-64.5	3.3	-0.4%
COc1cc(OC)cc(C(=O)OCCCOC(=O)c2cc(OC)cc(OC)c2)c1	5.3	-0.7	0.2	7.3	21.9	-3.2	-0.2	9.9	-1.1	·
O=C(Nc1cccc(Cl)c1)c1ccc(NCCCN2CCOCC2)c([N+](=O)[O-])c1	2.1	·	-0.4	24.0	0.0	0.1	·	·	·	3.3%

(list continues)
SMILES	RanGTP-Impb inh	MLL AF4-AF9 inh	A1 inh	T cruzi repl	Calb FLC	Beta cell apopt	rRNA inh HTS	rRNA inh HTS OD600	rRNA inh HTS RFP	Vif TR-FRET
COC(=O)c1c(NC(=S)NNS(=O)(=O)c2ccc(OC)cc2OC)sc2c1CCCCCC2	-1.4	-0.6	-1.7	-5.5	13.7	0.8	4.5	14.3	-1.6	·
COc1ccc(/C=N/Nc2nccnc2Cl)cc1	-0.9	·	-7.0	-8.8	-20.1	33.5	·	·	·	16.9%
Cc1cc(C(=O)NN=C2CCCCCC2)c(C)o1	5.8	-3.3	0.0	-7.4	-1.0	-1.5	7.5	-4.5	-1.8	1.1%
O=[N+]([O-])c1ccc2nc(-c3ccccc3)n(OCc3ccc(Cl)cc3)c2c1	-3.7	·	-0.5	12.2	32.0	15.6	-7.7	-8.6	-8.0	15.7%
CN(Cc1cnccn1)C(=O)C1CCC(=O)N(CCc2ccc(Cl)cc2)C1 (stereo not given)	-0.5	4.1	-1.5	-19.9	-1.1	-1.0	9.2	12.8	-1.3	·
S=C(NCc1ccco1)NCC(c1ccco1)N1CCCCC1 (stereo not given)	-2.2	4.4	0.3	-4.8	-13.1	-4.8	4.2	1.3	8.7	-8.2%

High-throughput results deposited in PubChem BioAssay by several laboratories.
